# Screening results as filed in PubChem.
# Tgondii IFNg: T. gondii growth inhibition with IFN-gamma, primary screen, cell-based. hit rate 3.8% among 69,000. Toxoplasma gondii growth in IFN-gamma-treated host cells; active compounds read low; reference of the scale not given here. activity change, negative = inhibition, %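 (about 20 µM by stock and volumes)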. AID 1259416, 2018;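 active = below -70%; inconclusive = fit judged invalid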;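 also: host cells are HeLa cells infected with Toxoplasma gondii; parasite growth read as luciferase light; one replicate is shown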
# Starred values were filed as active, the others as inactive; i = inactive; u = inconclusive; & = joins results of further samples. Some of the compounds tested (hit frequency here may not be typical).
SMILES,Tgondii IFNg
CCN1CCN(CCNC(=O)C2=C(C)C(=O)OC23CCN(S(=O)(=O)CC)CC3)CC1,-12
COc1ccc(-n2ccnc2C2CCOC2)cn1 (stereo unspecified),-1
Cc1cc(C)n(CCCN(C)S(=O)(=O)c2ccc(OC3CCCC3)cc2)n1,-14
Cc1nnc(NC(=O)C2CCCN2C(=O)Nc2ccccc2)s1 (stereo unspecified),1
Cc1ccc(Oc2ncc(Cl)cc2C(F)(F)F)c2c1CCC2,10
CCCN1C(=O)CCc2cc(NC(=O)c3sccc3C)ccc21,54
CCCN1CC(NC2CSCCSC2)CC1=O (stereo unspecified),4
O=C(NCc1ccncc1)C1CC12CCN(C(=O)c1ccccc1)C2 (stereo unspecified),9
O=S(=O)(c1ccccc1F)N1[C@@H]2CNC[C@H]1C2c1ccc(/C=C/c2ccccc2)cc1 (stereo partly specified),-17&-44
O=C(NCC[C@H]1CC[C@@H](NS(=O)(=O)Cc2ccccc2)[C@H](CO)O1)C1CCCCC1,-41
Cc1cc2occ(CC(=O)NCc3nc(-c4ccccc4)no3)c2cc1C,-15
O=C(c1ccc(-c2cccc(CN3CCOCC3)c2)o1)N1CCCCC1,26
Cc1ccc(-c2nc(C)c(CCNC(=O)C(=O)Nc3ccc4c(c3)OCCO4)s2)cc1,-38
CCOc1ccc(-c2nc(Cn3ccn4nc(-c5ccccc5)cc4c3=O)c(C)o2)cc1,5
C=CCO[C@H]1CC[C@@H]2[C@H]1OCCN2C(=O)C1=CCCCC1,-45
CCOC(=O)N1CCC2(CC1)OC(=O)C(C)=C2C(=O)NCCN(C)C,137
CCOC(=O)c1cccc(NC(=O)Nc2ccc(-c3nc(-c4cc(C)ccc4C)co3)cc2)c1,-37
CCOC(=O)c1ccc(NC(=O)CCOc2cccc(C)c2)cc1,78
O=S(=O)(c1ccc(F)cc1)N1CC2CCC1C2Oc1cccnc1 (stereo unspecified),-14
CC(C)NC(=O)c1cc2c(nc1NCC1CC1)CCN(Cc1ccccn1)CC2,5
COc1ccc2c3c(n(C)c2c1)[C@@H](CO)N(Cc1ccc(Cl)cc1)CC31CN(C(=O)NC(C)C)C1,-49
CSc1ncc2c(n1)-c1c(SC)sc(C(=O)Nc3ccc(Cl)cc3)c1CC2,-85*
COc1ccc2c3c([nH]c2c1)[C@@H](CO)N(C(=O)Nc1ccc(F)cc1)CC31CN(S(=O)(=O)c2ccc(C)cc2)C1,19
CCNc1ccnc(N2Cc3cnc(-c4ccccc4)nc3C2)n1,19
Cc1noc(C2CCCN2C(=O)Cc2c(C)[nH]c3c(F)cccc23)n1 (stereo unspecified),-1
# New compounds follow.
SMILES,Tgondii IFNg
CCS(=O)(=O)Nc1ccc2c(c1)C(=O)N(C)[C@@H]1CC[C@@H](CC(=O)NCCCN3CCOCC3)O[C@@H]1CO2,-27
CCSc1ncc(-c2nccn2Cc2cc(C(C)C)no2)cn1,1
Cc1noc(-c2ccccc2OCC(=O)O)n1,62
COc1cc(C)c(S(=O)(=O)NCCCn2ccnc2)cc1C,-12
COc1ccc(C)cc1NC(=O)N1CCC2(CC1)NC(=O)c1ccc(F)cc1N2C,21
COCC1(C(=O)NC(C)c2ccc3c(c2)OCCCO3)CCC1 (stereo unspecified),42
CC(C)NC(=O)N[C@H]1CC[C@H](CC(=O)NCCCN(C)C)O[C@@H]1CO,-1
Cc1cnc2c(Cl)c(C(=O)N3CCCC4(CC3)CNC(=O)O4)nn2c1 (stereo unspecified),26
CC(C)NC(=O)CNC(=O)CN1CCCCCCC1,8
Cc1cc(C(=O)N2CCc3nc(N4CCCC4)nc(C)c3CC2)c(C)o1,-5
O=C1NC(Cc2cccc(Cl)c2)COCc2cnnn2CCC1c1ccccc1 (stereo unspecified),6
CN1CCNC(=O)C12CCN(S(=O)(=O)c1cccc(Cl)c1)CC2,-32
CCCc1nc(C(=O)N2CCC(O)(CN(C)C)C2)cs1 (stereo unspecified),2
CCc1c(C)nn(CC(=O)N2CCCC(c3nn(C)c(=O)n3CC)C2)c1C (stereo unspecified),10
O=c1c2ccccc2oc2nc3n(c(=O)c12)CCCS3,8
COCCN1C(=O)CC(c2ccccc2)C12CCN(C(N)=O)CC2 (stereo unspecified),-14
CC(c1ccccc1)n1c(SCC(=O)O)nnc1-c1ccncc1 (stereo unspecified),-3
C=C(C)COc1ccccc1C(=O)NC(C)c1cn2ncsc2n1 (stereo unspecified),8
O=C(CN(Cc1ccccc1Cl)C(=O)C1CSC(=O)C1)NC1CCCCC1 (stereo unspecified),3
COc1ccc(CNC(=O)Cn2nc(C(F)(F)F)c3c2CCC3)cc1,10
c1ccc2cc(C3=NCCN3)ncc2c1,-1&6
Cc1ccc(-c2nc(Cn3nnc(C(=O)Nc4ccccc4)c3C)c(C)o2)cc1,1
CCOC(=O)N1CCC(NCc2cncn2CC(C)C)CC1,-1
COCc1nnc(NC(=O)c2cc(-c3ccc(F)cc3)n(C)n2)s1,-52
CN(C)C(=O)c1cnc2n1CCN(c1cc(C(F)(F)F)ncn1)C2,76
# Next entries follow.
SMILES,Tgondii IFNg
COc1ccc(/C=C/c2cc(O)cc(O[C@@H]3O[C@H](CO)[C@@H](O)[C@H](O)[C@H]3O)c2)cc1,-38
CC(C(=O)Nc1ccccn1)N1CCc2[nH]nc(-c3ccc(F)c(F)c3)c2C1 (stereo unspecified),10
CC(NC(=O)c1ccccc1Cn1cccn1)c1ccccn1 (stereo unspecified),-41
Cc1nc(C(C)C)ncc1C(=O)N1Cc2cnc(-c3ccccc3)nc2C1,-2
CC(C)c1nc2ccc(NC(=O)c3ccc(Cn4ccnc4)o3)cc2s1,-9
Cc1noc(C)c1S(=O)(=O)N(C)C[C@@H]1Oc2c(NS(=O)(=O)c3cn(C)cn3)cccc2C(=O)N([C@@H](C)CO)C[C@H]1C,13
Cc1ccc(S(=O)(=O)N(C)C[C@H]2OCCCC[C@@H](C)Oc3ccc(NC(=O)c4ccncc4)cc3C(=O)N([C@H](C)CO)C[C@@H]2C)cc1,i
O=C(c1cccs1)N1C[C@H]2CCC[C@]2(COCc2ccccn2)C1,-9
O=C(CCN1CCCCC1)N[C@H]1CC[C@@H](CCn2cc(-c3cccc(F)c3)nn2)O[C@H]1CO,-4
CO[C@@H]1CN(C)C(=O)c2ccc(NC(=O)c3nc4ccccc4s3)cc2OC[C@@H](C)N(Cc2cccnc2)C[C@H]1C,-85*
CN(C)CC(=O)N1[C@H](C#N)[C@H](c2ccccc2-c2ccc(C(=O)N(C)C)cc2)[C@@H]1CO,-44
Cc1ccc2[nH]cc(-c3cccc(OCC(N)=O)c3)c2c1,24
COc1ccccc1-c1cc2c(=O)n(Cc3nc(-c4ccccc4OC)oc3C)ccn2n1,i
CC1(C)C2CCC1(CS(=O)(=O)Nc1cccc(S(N)(=O)=O)c1)C(=O)C2 (stereo unspecified),27
CCC(=O)N1[C@H](CO)[C@H]2c3ccccc3N(C(=O)Nc3ccc(Cl)cc3)C[C@H]21,18
CC(C)(C)c1ccc(-c2nnnn2-c2ccc(Cl)c(Cl)c2)cc1,-9
NC1(C(=O)O)CCN(Cc2ccccc2O)C1 (stereo unspecified),3
Cc1nc(NC(=O)CCC(=O)Nc2cccc(-c3nnco3)c2)sc1C,0
CC(C)CN(Cc1ccco1)C(=O)c1cn(CC2CCCNC2)nn1 (stereo unspecified),-2
c1cncc(-c2nc(N3CCOCC3)ncc2-c2ccncc2)c1,1
COCc1nc(CNC2CSCCSC2)no1,1
COCCN1CCOCC12CCN(C(=O)c1cnccn1)CC2,-1
CCS(=O)(=O)N1CC2(C1)[C@H](c1ccccc1)[C@H](CO)N2Cc1ccccn1,24
CN(C[C@H]1[C@H](c2ccccc2)[C@@H](CO)N1Cc1ccccn1)S(C)(=O)=O,1
COc1ccc(C#Cc2cnc3c(c2)C(=O)N([C@H](C)CO)C[C@H](C)[C@H](CN(C)Cc2cccc(C)c2)O3)cc1OC,-18

# Reformatted with tabs: 2 of the compounds above.
SMILES	Tgondii IFNg
CO[C@@H]1CN(C)C(=O)c2ccc(NC(=O)c3nc4ccccc4s3)cc2OC[C@@H](C)N(Cc2cccnc2)C[C@H]1C	-85*
CN(C)CC(=O)N1[C@H](C#N)[C@H](c2ccccc2-c2ccc(C(=O)N(C)C)cc2)[C@@H]1CO	-44

# The list goes on:
SMILES,Tgondii IFNg
CC(C)COC(=O)N(C)C[C@@H]1OCc2ccccc2-c2ccccc2C(=O)N([C@@H](C)CO)C[C@H]1C,-41
CCN1CCC2(CC1)OC(=O)C(C)=C2C(=O)NCCCN1CCCCC1C (stereo unspecified),91
CN1C[C@@H]2CC[C@H](CC1=O)N2C(=O)c1cc2ccccc2[nH]c1=O,-43
O=C(NCCc1csc(-c2ccccc2)n1)c1ccccc1Br,i
COCCNC(=O)C[C@@H]1COC[C@H]2CN(C(=O)c3ccncc3)C[C@H]12,4
COC(=O)c1cc(OCC(F)(F)F)nc(OCC(F)(F)F)c1,28
CN1c2ccc(Br)cc2[C@H]2[C@H](CCN2C(=O)CN2CCOCC2)[C@H]1CO,5
C[C@H]1CN([C@@H](C)CO)C(=O)Cc2cc(NC(=O)c3ccncc3)ccc2O[C@@H]1CN(C)C(=O)Nc1ccc(F)cc1,-28
C[C@@H](NC(=O)C[C@H]1CC[C@@H]2[C@@H](COc3ccc(NC(=O)C4CCOCC4)cc3C(=O)N2C)O1)c1ccccc1,4
O=C(NCCCN1CCOCC1)[C@H]1[C@H](CO)[C@H]2Cn3c(ccc(C4=CCCCC4)c3=O)[C@@H]1N2,-53
Cc1ccc2c(Cl)cc(Cl)c(O)c2n1,-81*
COc1cc(C(=O)N2CCC(C)(C(=O)NCc3ccc(F)cc3F)CC2)cc(OC)c1OC,14
N#Cc1cccc(-c2ccc3c(c2)[C@@H]2[C@@H](CCN2C(=O)CN2CCOCC2)[C@@H](CO)N3)c1,126
CC(C)c1ccc(C(=O)Nc2cccc(NC(=O)CN3CCOCC3)c2)c(=O)[nH]1,-10
COc1ccc(NC(=O)c2nnn(Cc3nc(-c4cccc(Cl)c4)oc3C)c2C)cc1OC,33
Cc1cccnc1CC(C)NC(=O)c1ccc(NC(=O)c2ccoc2C)cc1 (stereo unspecified),-7
CC1CCN(S(=O)(=O)c2ccc3c(ccc(=O)n3CC(=O)N3CCCCC3)c2)CC1,17
COCC(=O)N1CCC2(CC1)CN(CCOCc1ccccc1)CCN2C,-3
COc1ccc(-n2c(=O)c(C(=O)NCc3cccc(C)c3)c(O)c3cccnc32)cc1,56
Cc1nn(C)c(C)c1CCC(=O)N(C)Cc1nc(-c2ccccc2)no1,-2
COC(=O)[C@@H]1C[C@@H](NC(=O)c2cn[nH]c2-c2cccc(OC)c2)CN1C,7
COc1cc(OC)c(-c2c(-c3ccccc3)ncn2CC2CNCCO2)cc1OC (stereo unspecified),-8
CN1CCO[C@H]2CCN(C(=O)c3cn(C)cn3)C[C@H]21,52
COCCNc1nnc(Cn2nnc3ccccc32)s1,-8
Cc1occc1C(=O)N1CCn2cc(CNc3ccccn3)nc2C1,-8

# Part of the list above in another layout:
SMILES | Tgondii IFNg
CCN1CCC2(CC1)OC(=O)C(C)=C2C(=O)NCCCN1CCCCC1C (stereo unspecified) | 91
CN1C[C@@H]2CC[C@H](CC1=O)N2C(=O)c1cc2ccccc2[nH]c1=O | -43
O=C(NCCc1csc(-c2ccccc2)n1)c1ccccc1Br | i
COCCNC(=O)C[C@@H]1COC[C@H]2CN(C(=O)c3ccncc3)C[C@H]12 | 4
COC(=O)c1cc(OCC(F)(F)F)nc(OCC(F)(F)F)c1 | 28
CN1c2ccc(Br)cc2[C@H]2[C@H](CCN2C(=O)CN2CCOCC2)[C@H]1CO | 5
C[C@H]1CN([C@@H](C)CO)C(=O)Cc2cc(NC(=O)c3ccncc3)ccc2O[C@@H]1CN(C)C(=O)Nc1ccc(F)cc1 | -28
C[C@@H](NC(=O)C[C@H]1CC[C@@H]2[C@@H](COc3ccc(NC(=O)C4CCOCC4)cc3C(=O)N2C)O1)c1ccccc1 | 4
O=C(NCCCN1CCOCC1)[C@H]1[C@H](CO)[C@H]2Cn3c(ccc(C4=CCCCC4)c3=O)[C@@H]1N2 | -53
Cc1ccc2c(Cl)cc(Cl)c(O)c2n1 | -81*
COc1cc(C(=O)N2CCC(C)(C(=O)NCc3ccc(F)cc3F)CC2)cc(OC)c1OC | 14
N#Cc1cccc(-c2ccc3c(c2)[C@@H]2[C@@H](CCN2C(=O)CN2CCOCC2)[C@@H](CO)N3)c1 | 126
CC(C)c1ccc(C(=O)Nc2cccc(NC(=O)CN3CCOCC3)c2)c(=O)[nH]1 | -10
COc1ccc(NC(=O)c2nnn(Cc3nc(-c4cccc(Cl)c4)oc3C)c2C)cc1OC | 33
Cc1cccnc1CC(C)NC(=O)c1ccc(NC(=O)c2ccoc2C)cc1 (stereo unspecified) | -7

# Additional compounds
SMILES,Tgondii IFNg
CCCOCCN1CC(C(=O)O)CC1=O (stereo unspecified),99
CCC(C)(C)n1nnnc1C(c1cccs1)N1CCc2ccccc2C1 (stereo unspecified),5
Cc1ccc(C)c(-c2coc(-c3ccc(NC(=O)Cc4cccs4)cc3)n2)c1,8
O=S(=O)(Nc1ccc(F)c(Cl)c1)c1cc(Br)c(Br)s1,u
Cc1cc(Br)cc2[nH]cnc12,-53
COc1ccc(CCC(=O)Nc2nnc(C3CCCO3)s2)cc1OC (stereo unspecified),-36
COCCNC(=O)C[C@@H]1CC[C@@H]2[C@H](COC[C@H](O)CN2S(=O)(=O)c2ccccc2F)O1,6
COC(=O)c1ccc(-c2noc(-c3c(O)c4ccccc4[nH]c3=O)n2)cc1,22
CO[C@@H]1CCN(C2CCOCC2)C[C@@H]1Cc1ccccc1,-1
CN(C)CCCSC(=N)N,6&18
COC(=O)c1cc(CN(C)Cc2cccc3ncccc23)cs1,-39
Cc1nn(Cc2nc(-c3ccc(NC(=O)c4cc(F)ccc4F)cc3)oc2C)c(C)c1C,-52
O=C(Cc1ccccn1)N[C@H]1CC[C@H](CCNS(=O)(=O)c2cccc(F)c2)O[C@H]1CO,72
Cn1cc(-c2ncnc3c2CCN(C(N)=O)CC3)cn1,-17
CN1CCC2(CC1)CN(C(=O)c1ccc(S(N)(=O)=O)cc1)CCN2C,-3
O=C(NCc1ccco1)N1CCC2(CC1)Nc1ccccc1-n1cccc12,i
O=C(NCc1ccccc1F)c1nc(Nc2ccccc2)c2ccccc2n1,-20
Nc1cc(=O)[nH]n1C1CCN(c2ccccc2)CC1,39
COc1ccc(CC(=O)NCCc2sc(-c3cccc(F)c3)nc2C)cc1,-20
